Vaccinia inh: Vaccinia orthopox stage-specific inhibition | Vaccinia-infected cells, mCherry/Venus stage reporter fluorescence; active compounds read low; some inactives read as strong as hits | actives 0.01% (n = 89,000) | activity change (mCherry), % (concentration not given with the values) | AID 1053133;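 active means mCherry past -33% and 40 or more points under the early reporter, replicates agreeing; inconclusive means past -33% without that gap or agreement; tested in A549 cells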;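 further: scaled between vehicle wells and reference inhibitor wells; 23 nL library stock went into each well; one replicate is shown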
Vaccinia inh Venus: also measured in Vaccinia inh; calls as there; activity change (Venus), %; measured here: Venus reporter, other viral stage;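 negative = less Venus signal; first of two replicates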
* marks the source's active call; other numbers are inactive results; ? = inconclusive; . = no result given. Some of the compounds tested. The share of hits here may be higher or lower than overall.

SMILES | Vaccinia inh | Vaccinia inh Venus
CCCc1cn(CC[C@H]2CC[C@H](NC(=O)C3CCC3)[C@@H](CO)O2)nn1 | -1.0 | 1.6
C[C@@H]1CCCCO[C@H](CN(C)C(=O)Nc2ccc(C(F)(F)F)cc2)[C@@H](C)CN([C@H](C)CO)C(=O)c2cc(NS(C)(=O)=O)ccc2O1 | 10.1 | 9.6
C[C@@H]1CN([C@@H](C)CO)C(=O)c2cccc(NS(=O)(=O)c3ccc(F)cc3)c2O[C@H]1CN(C)Cc1ccccc1 | 2.8 | 1.0
CCCNC(=O)N[C@H]1C=C[C@@H](CC(=O)NC2CCC2)O[C@@H]1CO | -3.0 | 0.9
O=C(C1CC1)N1C[C@H]2[C@@H](c3ccccc31)[C@@H](CO)N2Cc1ccccc1Cl | -3.8 | 4.8
O=C(N[C@H]1CC[C@@H](CCn2cc(-c3ccccn3)nn2)O[C@@H]1CO)c1ccncc1 | -0.5 | -1.2
O=C(C[C@@H]1CC[C@@H](NC(=O)c2ccccc2)[C@@H](CO)O1)NCc1ccc(Oc2ccccc2)cc1 | -19.3 | -6.2
C[C@H]1CN([C@@H](C)CO)C(=O)c2cc(C#CC3CCCC3)cnc2O[C@@H]1CN(C)C(=O)Nc1ccccc1 | -0.9 | -1.9
CCC(=O)N1C[C@H](C)[C@H](OC)CN(C)C(=O)c2cc(NS(C)(=O)=O)ccc2OC[C@H]1C | -13.0 | -11.3
CO[C@@H]1CN(C)C(=O)c2cc(NC(C)=O)ccc2OC[C@@H](C)N(C(=O)Cc2cccnc2)C[C@H]1C | 11.0 | 7.9
C[C@@H]1CCCCO[C@@H](CN(C)C(=O)c2ccncc2)[C@H](C)CN([C@H](C)CO)C(=O)c2cc(NS(=O)(=O)c3cn(C)cn3)ccc2O1 | 25.7 | 10.3
C[C@@H]1CCCCO[C@@H](CN(C)Cc2ccncc2)[C@H](C)CN([C@H](C)CO)C(=O)c2cc(NS(=O)(=O)c3cn(C)cn3)ccc2O1 | 24.4 | 7.9
CCCC(=O)N1CCC2(CC1)CN(Cc1ccncc1)[C@@H](CO)c1[nH]c3cc(OC)ccc3c12 | 3.8 | 4.2
O=C(N[C@@H]1CC[C@@H](CCn2cc(-c3ccccn3)nn2)O[C@@H]1CO)c1cccnc1 | 10.8 | 13.2
C[C@H]1CN([C@@H](C)CO)C(=O)Cc2cc(NC(=O)Cc3cn(C)c4ccccc34)ccc2O[C@H]1CN(C)C(=O)Nc1ccc(C(F)(F)F)cc1 | -15.4 | -2.6
C[C@@H]1CN([C@H](C)CO)C(=O)c2cccc(NC(=O)C3CC3)c2O[C@H]1CN(C)C(=O)Nc1ccc2c(c1)OCO2 | 3.4 | 20.8
C[C@H](CO)N1C[C@H](C)[C@@H](CN(C)Cc2ccncc2)OCCCC[C@H](C)Oc2ccc(NC(=O)Nc3ccc(C(F)(F)F)cc3)cc2C1=O | -18.9 | -8.5
CNC[C@@H]1Oc2c(NC(=O)Nc3ccc(C(F)(F)F)cc3)cccc2C(=O)N([C@H](C)CO)C[C@H]1C | ? | .
COCC(=O)N1CC2(C1)[C@H](c1ccc(-c3cccc(F)c3)cc1)[C@@H](CO)N2C(=O)COC | -3.7 | 0.6
Cc1noc(C)c1S(=O)(=O)Nc1ccc2c(c1)C(=O)N([C@@H](C)CO)C[C@H](C)[C@H](CN(C)Cc1ccc3c(c1)OCO3)OCCCC[C@@H](C)O2 | ? | .

Reformatted with values under each structure: entries from further up
Value order: Vaccinia inh, Vaccinia inh Venus
- CCCNC(=O)N[C@H]1C=C[C@@H](CC(=O)NC2CCC2)O[C@@H]1CO
    -3.0, 0.9
- O=C(C1CC1)N1C[C@H]2[C@@H](c3ccccc31)[C@@H](CO)N2Cc1ccccc1Cl
    -3.8, 4.8
- O=C(N[C@H]1CC[C@@H](CCn2cc(-c3ccccn3)nn2)O[C@@H]1CO)c1ccncc1
    -0.5, -1.2

(list continues)
SMILES | Vaccinia inh | Vaccinia inh Venus
C[C@@H]1CCCCO[C@H](CN(C)C(=O)CCC(F)(F)F)[C@H](C)CN([C@@H](C)CO)C(=O)c2cc(NC(=O)NC3CCCCC3)ccc2O1 | -24.0 | -14.4
CCCN1C[C@@H](C)[C@H](OC)CN(C)C(=O)c2ccc(NC(=O)Nc3ccccc3F)cc2OC[C@@H]1C | -17.2 | -13.1
CCN(C[C@H]1[C@H](c2ccccc2)[C@H](CO)N1C(C)=O)C(=O)NC1CCCC1 | 2.3 | 8.4
CN1c2ccc(-c3cccc(C#N)c3)cc2[C@@H]2[C@@H](CCN2C(=O)C2CCCCC2)[C@@H]1CO | ? | .
CC(C)NC(=O)N(C)C[C@@H]1Oc2ccc(NC(=O)CCN3CCOCC3)cc2C(=O)N([C@@H](C)CO)C[C@@H]1C | 6.0 | -4.1
CC(=O)NC[C@@H]1[C@@H](c2ccc(-c3ccccc3F)cc2)[C@H](CO)N1C(=O)C1CC1 | -15.6 | -7.7
COc1ccc2c3c(n(C)c2c1)[C@H](CO)N(CC1CC1)CC31CN(C(=O)c2ccccc2)C1 | 8.8 | 6.7
COc1cccc(-c2ccc3c(c2)[C@H]2[C@H](CCN2C(=O)c2ccccc2F)[C@H](CO)N3C)c1 | -33.5 | -22.4
Cc1noc(C)c1NC(=O)N(C)C[C@@H]1OCCCC[C@H](C)Oc2ccc(NC(=O)Nc3ccc(C(F)(F)F)cc3)cc2C(=O)N([C@@H](C)CO)C[C@@H]1C | -13.6 | -7.5
C[C@@H]1CN([C@H](C)CO)S(=O)(=O)c2ccc(-c3ccccc3)cc2O[C@@H]1CN(C)S(=O)(=O)c1ccccc1F | ? | .
C[C@H](CO)N1C[C@H](C)[C@H](CN(C)S(C)(=O)=O)Oc2ccc(NS(C)(=O)=O)cc2C1=O | 4.1 | -2.8
N#C[C@@H]1[C@H](c2ccccc2C2=CCCC2)[C@@H](CO)N1C(=O)C1CC1 | 12.7 | 7.4
Cc1ccc(S(=O)(=O)N2C[C@@H]3O[C@H](CNS(=O)(=O)c4ccccc4C)CC[C@@H]32)cc1 | 1.2 | 0.5
CCC(=O)N1[C@H](CO)[C@@H](c2ccccc2)[C@@H]1CN(CC)C(=O)c1ccccc1 | 7.8 | 8.1
Cc1ccc(-c2cnc3c(c2)C(=O)N([C@H](C)CO)C[C@@H](C)[C@@H](CN(C)CC2CCCC2)O3)cc1 | ? | .
CC(=O)Nc1ccc2c(c1)C(=O)N(C)[C@@H]1CC[C@H](CC(=O)NCc3ccccc3Cl)O[C@H]1CO2 | 9.1 | 14.1
C[C@@H]1CN([C@H](C)CO)S(=O)(=O)c2ccc(-c3ccc(C(=O)N(C)C)cc3)cc2O[C@@H]1CN(C)Cc1ccccc1C(=O)O | 15.8 | 6.7
Cc1ccc(S(=O)(=O)N(C)C[C@@H]2OCCCC[C@H](C)Oc3ccc(NS(=O)(=O)c4cn(C)cn4)cc3C(=O)N([C@H](C)CO)C[C@H]2C)cc1 | 10.1 | 5.0
C[C@@H]1CN([C@H](C)CO)S(=O)(=O)c2ccc(/C=C/c3ccccc3)cc2O[C@H]1CN(C)C(=O)c1ccncc1 | -33.1 | -20.2
CN(C)CC(=O)N1[C@H](CO)[C@H](c2ccccc2)C12CN(CCC(F)(F)F)C2 | 8.0 | 1.7
C[C@@H]1CN([C@H](C)CO)S(=O)(=O)c2ccc(-c3cccnc3)cc2O[C@@H]1CN(C)Cc1cncnc1 | 7.3 | 5.0
CCCNC(=O)NC[C@@H]1CC[C@H]2[C@H](CN2C(=O)C2CCOCC2)O1 | -1.2 | 7.9
C[C@H]1CN([C@@H](C)CO)C(=O)c2cc(NC(=O)CCN3CCOCC3)ccc2O[C@H]1CN(C)Cc1ccc(-c2ccccc2)cc1 | -15.9 | -10.1
C[C@H](CO)N1C[C@H](C)[C@H](CN(C)C(=O)Nc2ccc(-c3ccccc3)cc2)OCc2ccccc2-c2ccccc2C1=O | -27.0 | -15.1
CO[C@@H]1CN(C)C(=O)c2cc(NC(=O)c3ccc(Oc4ccccc4)cc3)ccc2OC[C@H](C)NC[C@@H]1C | ? | .
C[C@@H]1CN([C@H](C)CO)C(=O)c2cc(NC(=O)Nc3ccc4c(c3)OCO4)ccc2O[C@@H]1CN(C)C(=O)Nc1cccc2ccccc12 | 9.3 | 8.0
COc1ccc2c3c(n(C)c2c1)[C@H](CO)N(C(=O)c1ccccn1)CC31CCN(C(C)=O)CC1 | 10.6 | 5.8
C[C@H]1CN([C@@H](C)CO)C(=O)c2cccc(NS(=O)(=O)c3ccc(F)cc3)c2O[C@@H]1CN(C)Cc1ccc(C(F)(F)F)cc1 | -8.3 | -5.8
C[C@@H]1CN([C@@H](C)CO)C(=O)CCCn2nncc2CO[C@@H]1CN(C)C(=O)C1CCCCC1 | -0.7 | -3.7
O=C(c1ccncc1)N1CC(=O)N2[C@@H](CO)[C@@H](c3ccc(-c4cccnc4)cc3)[C@@H]2C1 | 15.0 | 5.5
C[C@H](CO)N1C[C@H](C)[C@@H](CN(C)S(C)(=O)=O)Oc2cc(C#CC3CC3)ccc2S1(=O)=O | -13.8 | -13.1
COc1ccccc1CNC(=O)C[C@@H]1CC[C@H]2[C@@H](COc3ccc(NS(=O)(=O)c4ccc(C)cc4)cc3C(=O)N2C)O1 | -9.3 | 1.1
COCC(=O)N(C)C[C@H]1Oc2ncc(C#Cc3ccccc3OC)cc2C(=O)N([C@@H](C)CO)C[C@@H]1C | 13.1 | 2.2
CC(C)(C)S(=O)N1Cc2cc(C(=O)O)nc(-c3cccc(-c4cccc(F)c4)c3)c2[C@H]1CCO (stereo partly drawn) | -6.8 | -8.7
CN1C(=O)c2cc(NC(=O)c3ccc(C(F)(F)F)cc3)ccc2OC[C@@H]2O[C@H](CC(=O)O)CC[C@@H]21 | -1.0 | -6.3
Cc1noc(C)c1NC(=O)N[C@@H]1C=C[C@@H](CC(=O)Nc2ccccc2)O[C@H]1CO | 5.6 | -0.1
CCC(=O)N1CC2(C1)[C@@H](c1ccccc1)[C@@H](CO)N2C(=O)NC(C)C | 8.5 | 7.4
C[C@@H]1CN([C@H](C)CO)C(=O)c2cc(N(C)C)ccc2O[C@@H](C)CCCCO[C@@H]1CN(C)Cc1ccc(C(=O)O)cc1 | 4.2 | 12.8
CCCC#Cc1cnc2c(c1)C(=O)N([C@H](C)CO)C[C@@H](C)[C@@H](CN(C)C(=O)CCN1CCCCC1)O2 | -3.9 | -6.1
O=S(=O)(N[C@@H]1CC[C@@H](CCn2cc(C3CC3)nn2)O[C@H]1CO)c1ccc(Cl)cc1 | 18.4 | 6.9
C[C@H]1CN([C@@H](C)CO)C(=O)Cc2cc(NS(=O)(=O)c3ccc(Cl)cc3)ccc2O[C@H]1CN(C)S(=O)(=O)c1ccc(Cl)cc1 | -33.1 | -21.0
CCN1[C@H](C(=O)N[C@H](C)c2ccccc2)[C@@H](CO)[C@@H]2Cn3c(ccc(-c4cccc(F)c4)c3=O)[C@@H]21 | -7.0 | -10.6
C[C@H]1CN([C@@H](C)CO)C(=O)c2ccccc2-c2ccccc2CO[C@H]1CN(C)Cc1ccc(C(=O)O)cc1 | 25.6 | 22.7
C[C@H]1CCCCO[C@H](CN(C)C(=O)CCCN(C)C)[C@@H](C)CN([C@@H](C)CO)C(=O)c2cc(NC(=O)CCC(F)(F)F)ccc2O1 | 7.0 | -1.8
Cc1cc(C(=O)Nc2cccc3c2O[C@@H](CN(C)S(=O)(=O)c2ccccc2)[C@@H](C)CN([C@H](C)CO)C3=O)n(C)n1 | 3.8 | 5.1
CCCNC(=O)Nc1ccc2c(c1)OC[C@@H](C)N(Cc1ccc(-c3ccccn3)cc1)C[C@H](C)[C@H](OC)CN(C)C2=O | -21.2 | -17.8
Cc1ccc(S(=O)(=O)N[C@@H]2CC[C@@H](CCNC(=O)Nc3ccc(Cl)cc3)O[C@H]2CO)cc1 | -31.3 | -24.4
COc1cccc(CNC(=O)C[C@@H]2CC[C@H]3[C@H](COc4ccc(NC(=O)c5cccs5)cc4C(=O)N3C)O2)c1 | ? | .
C[C@H]1CN([C@@H](C)CO)C(=O)c2cc(NC(=O)C3CC3)ccc2O[C@@H]1CN(C)S(=O)(=O)c1ccccc1 | 15.1 | 4.8
Cc1ccc(S(=O)(=O)Nc2ccc3c(c2)C(=O)N([C@@H](C)CO)C[C@@H](C)[C@H](CN(C)C(=O)NC(C)C)OCCCC[C@H](C)O3)cc1 | -1.1 | -4.8
COc1ccc2c3c([nH]c2c1)[C@H](CO)N(C(=O)c1ccccn1)CC31CCN(C(=O)C2CCCCC2)CC1 | -0.4 | -1.8
C[C@@H]1CN([C@H](C)CO)C(=O)Cc2cc(NC(=O)C3CCCCC3)ccc2O[C@H]1CN(C)CC1CC1 | 10.5 | 11.6
COCC(=O)N1[C@@H](CO)[C@H](c2ccccc2)C12CN(C(=O)NC1CCCC1)C2 | -8.2 | -11.6

Quoted at random: seven compounds from above, in no set order.
SMILES | Vaccinia inh | Vaccinia inh Venus
COc1cccc(CNC(=O)C[C@@H]2CC[C@H]3[C@H](COc4ccc(NC(=O)c5cccs5)cc4C(=O)N3C)O2)c1 | ? | .
CCCNC(=O)Nc1ccc2c(c1)OC[C@@H](C)N(Cc1ccc(-c3ccccn3)cc1)C[C@H](C)[C@H](OC)CN(C)C2=O | -21.2 | -17.8
C[C@@H]1CN([C@H](C)CO)C(=O)Cc2cc(NC(=O)C3CCCCC3)ccc2O[C@H]1CN(C)CC1CC1 | 10.5 | 11.6
Cc1ccc(S(=O)(=O)Nc2ccc3c(c2)C(=O)N([C@@H](C)CO)C[C@@H](C)[C@H](CN(C)C(=O)NC(C)C)OCCCC[C@H](C)O3)cc1 | -1.1 | -4.8
Cc1cc(C(=O)Nc2cccc3c2O[C@@H](CN(C)S(=O)(=O)c2ccccc2)[C@@H](C)CN([C@H](C)CO)C3=O)n(C)n1 | 3.8 | 5.1
C[C@H]1CN([C@@H](C)CO)C(=O)c2ccccc2-c2ccccc2CO[C@H]1CN(C)Cc1ccc(C(=O)O)cc1 | 25.6 | 22.7
COCC(=O)N1[C@@H](CO)[C@H](c2ccccc2)C12CN(C(=O)NC1CCCC1)C2 | -8.2 | -11.6

Source: PubChem BioAssay
